Compound activity as filed in PubChem.
TSHR ag: qHTS Assay for Agonists of the Thyroid Stimulating Hormone Receptor. actives 0.48% (n = 73,000). HEK293-CNG-TSHR cells (CNG channel as cAMP sensor), membrane potential dye, cAMP. Thyrotropin receptor (Homo sapiens), P16473. AID 926, 2007. Potency, µM (doses to about 57.1 µM), for the others: at the highest dose activation, hits mostly activators; active = well fitted activation curve of enough size with the parental cells flat; inconclusive = any curve in the parental cells; inactive = parental cells flat and receptor cells flat or falling; note: potency is the fitted concentration of half-maximal effect; % of control where 0% means no effect; weak receptor curves with flat parental cells got no call and are not listed
Target sequence (P16473 whole entry, looked up): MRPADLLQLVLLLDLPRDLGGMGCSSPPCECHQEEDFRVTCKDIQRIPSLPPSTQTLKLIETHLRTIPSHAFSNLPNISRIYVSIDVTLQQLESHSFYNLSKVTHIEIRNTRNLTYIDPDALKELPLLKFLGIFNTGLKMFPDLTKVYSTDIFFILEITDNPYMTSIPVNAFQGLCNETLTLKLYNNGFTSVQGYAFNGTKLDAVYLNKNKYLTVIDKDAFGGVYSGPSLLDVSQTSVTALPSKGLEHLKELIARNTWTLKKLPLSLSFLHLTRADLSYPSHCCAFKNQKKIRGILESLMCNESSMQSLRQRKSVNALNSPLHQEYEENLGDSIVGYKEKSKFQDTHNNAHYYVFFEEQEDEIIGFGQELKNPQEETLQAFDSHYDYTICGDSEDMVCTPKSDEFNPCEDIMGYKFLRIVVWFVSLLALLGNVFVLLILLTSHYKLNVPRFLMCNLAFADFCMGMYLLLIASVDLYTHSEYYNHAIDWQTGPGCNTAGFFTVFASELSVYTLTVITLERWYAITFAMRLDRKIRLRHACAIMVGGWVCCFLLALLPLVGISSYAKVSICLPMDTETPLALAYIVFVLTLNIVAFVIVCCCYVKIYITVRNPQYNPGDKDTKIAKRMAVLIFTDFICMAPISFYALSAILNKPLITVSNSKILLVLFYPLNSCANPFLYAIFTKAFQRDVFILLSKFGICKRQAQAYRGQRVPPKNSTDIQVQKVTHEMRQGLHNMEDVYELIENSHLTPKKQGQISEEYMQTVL
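cAMP rise detected as CNG-channel membrane depolarization by fluorescent dye (emission 590 nm), 30 min after compound, following 60 min dye loading containing 100 uM RO 20-1724 at room temperature. Cells: TSHR/CNG HEK 293, with parental CNG HEK 293 as control.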
Resorufin fluor: qHTS Assay for Spectroscopic Profiling in Resorufin Spectral Region; actives 0.04% (n = 59,000); max dye-equivalent concentration, M; Compound fluorescence, resorufin region 547/598 nm, buffer; stronger effect = higher value; AID 588, 2007; active = above 10 nM dye equivalent; inconclusive = 1 to 10 nM; inactive = 1 nM or less; a few of its hits are not listed in these tables; note: highest value over a series up to 38 µM
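Compounds in 100 mM Tris buffer, pH 8.0, incubated 15 min at room temperature, then read with 547 nm excitation and 598 nm emission filters. Fluorescence was converted to dye-equivalent concentration using an on-plate six-point resorufin standard curve.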
A647 fluor: qHTS Assay for Spectroscopic Profiling in A647 Spectral Region; Compound fluorescence, A647 channel (570/671 nm), Tris buffer; max dye-equivalent concentration, M; 59,000 tested, under 10 active; active means above 1 µM dye equivalent; inconclusive means 0.1 to 1 µM; inactive means 0.1 µM or less;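 note: values scaled relative to a standard on each plate; highest value over a series up to 38 µM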
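Tris 100 mM pH 8.0; cpd + A647 stds pin-transferred; 15 min RT; CCD imager, ex 570/em 671. Output = A647-equivalent conc. per cpd conc.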
A488 autofl: qHTS Assay for Spectroscopic Profiling in A488 Spectral Region; max dye equivalency, M; compound autofluorescence, A488 spectral region, dye equivalency; stronger effect = higher value; AID 591, 2007; actives 0.1% (n = 59,000); active = above 10 nM dye equivalent; inconclusive = 1 to 10 nM; inactive = 1 nM or less; about half of its hits are not listed in these tables;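 note: highest value over a series up to 38 µM; compound alone in buffer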
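Readout is A488 dye-equivalent concentration, calibrated by a per-plate six-point Alexa 488 series. Compounds in 100 mM Tris buffer pH 8.0 were incubated 15 min at room temperature. Plates were imaged using 480 nm excitation/540 nm emission filters.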
AID923: qHTS Assay for Allosteric/Competitive Inhibitors of Caspase-1: Spectroscopic Profiling in AFC Spectral Region; compound fluorescence, AFC spectral region (405/520 nm); almost no hit is shown here; Potency, µM (top dose mostly 57.5 µM), inactives show at the highest dose fluorescence increase, actives largely listed as activators; actives 1.1% (n = 75,000); active = well fitted activation curve with a large enough effect; inconclusive = small, poorly fitted or top-dose-only effect;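 note: potency is the fitted concentration of half-maximal effect; 0% is about no effect; scaled to a free AFC standard on each plate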
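Titrations up to 57 uM read every 20 sec for 3 min (405/520 nm) with 50 nM caspase 1 and 5 uM Ac-WEHD-AFC, pH 7.5 HEPES buffer. Fluorescence-vs-time intercept gave baseline, scaled against on-plate AFC standard.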
* marks the source's active call; other numbers are inactive results; i = inactive; ? = inconclusive; nt = not tested or not shown; [ ] = dose if it differs, or a comment. This is a subset, so the mix of outcomes need not match the whole.

SMILES	TSHR ag	AID923	A647 fluor	Resorufin fluor	A488 autofl
O=C1CC(c2ccco2)CC2=C1C=Nc1ccccc1N2 (centres undefined)	5%	0.6%	3e-08	i	i
COc1ccc(C2=NO[C@@H]3C(=O)N(c4cccc(C)c4C)C(=O)[C@H]23)cc1OC	1%	-1.6%	1e-09	i	i
O=C(CCS(=O)(=O)c1ccc(Cl)cc1)OCC(=O)N1CCCCC1	-4%	-1.4%	2.8e-09	i	i
COCC(=O)N1CCC2(CCCN(c3ncccn3)C2)CC1	3%	-0.2%	1.2e-09	i	i
CC(C)(C)n1ncc2c(=O)n(CC(=O)Nc3ccc(Cl)cc3)cnc21	?	0.2%	1e-09	i	i
Cc1cc(C(F)(F)F)nc(NCc2cccnc2)n1	3%	0.7%	1e-09	i	i
Cc1ccc(S(=O)(=O)c2c(C)nn(C(C)(C)C)c2OC(=O)c2ccc(Br)o2)cc1	4%	2.1%	2.2e-08	i	i
Cc1ccc(NC(=O)Nc2cccs2)cc1	-8%	-0.6%	nt	nt	nt
COc1ccc(OC)c(S(=O)(=O)Nc2ccc(O)c(Sc3ncn[nH]3)c2)c1	?	1.1%	1.3e-08	i	i
CCCN1C(=O)C(O)(C/C(C)=N/O)c2ccccc21 (centres undefined)	3%	-1.0%	6.9e-09	i	i
CCOC(=O)c1cnc(SCC(=O)NCc2cccs2)nc1N	0%	1.1%	2.5e-08	i	i
COCCN(CC(=O)NCC1CCCO1)C(=O)CCC(=O)Nc1cc(C)on1 (centres undefined)	5%	-0.7%	3.1e-08	i	i
COc1cccc(-c2nn(C)c3sc(C(=O)N4CCN(c5ccccc5)CC4)cc23)c1	?	0.9%	1e-09	i	i
Cc1ccc(SCc2[nH]nc3c2C2(CCSCC2)C(C#N)=C(N)O3)cc1	5%	0.6%	1e-09	i	i
O=C(c1ccccc1)N1CCCC(C(=O)N2CCCCCC2)C1 (centres undefined)	8%	-1.5%	4.8e-09	i	i
Clc1ccc2[nH]c3c(NCC4CCCO4)ncnc3c2c1 (centres undefined)	17%	-1.7%	2.1e-08	i	i
COc1ccc(/C(O)=C2\C(=O)C(=O)N(c3cc(C)on3)C2c2ccccc2OC)cc1 (centres undefined)	nt	nt	3.6e-08	i	i
CNc1ncnc2c1ncn2[C@H]1C[C@H](OP(=O)(O)O)[C@H](COP(=O)(O)O)O1	18%	5.6%	nt	nt	nt
COCCn1c(SCC(=O)N2CCC(C)CC2)nc2ccccc2c1=O	?	-1.5%	1.8e-08	i	i
COc1ccc(-c2noc(-c3cccc(OC)c3OC)n2)cc1OC	15%	-1.5%	nt	nt	nt
Cc1ccc(N2C(=O)C3C(C2=O)C(C(=O)c2ccc(Cl)cc2)N2CCCC32)cc1 (centres undefined)	14%	3.0%	3.5e-08	i	?
Cc1noc(C)c1C(=O)N1CCC2(CCN(Cc3cc(C(F)(F)F)cc(C(F)(F)F)c3)CC2)CC1	15%	0.5%	1.4e-09	i	i
O=C(CCCC(=O)Nc1cccnc1)Nc1cccnc1	-4%	1.7%	nt	nt	nt
CCCCN(CCCC)CCCNC(=O)CC1Oc2ccc(C)cc2NC1=O (centres undefined)	6%[11.4 µM]	-0.9%	1.9e-08	i	i
CCC(C)(C)NC(=O)C(c1cccc(OC)c1)N(C(=O)c1ccn[nH]1)c1cccc(OC)c1 (centres undefined)	?	0.9%	2.5e-08	i	i

Random excerpt: two compounds from above
SMILES	TSHR ag	AID923	A647 fluor	Resorufin fluor	A488 autofl
O=C(CCS(=O)(=O)c1ccc(Cl)cc1)OCC(=O)N1CCCCC1	-4%	-1.4%	2.8e-09	i	i
CCCCN(CCCC)CCCNC(=O)CC1Oc2ccc(C)cc2NC1=O (centres undefined)	6%[11.4 µM]	-0.9%	1.9e-08	i	i

Later entries:
SMILES	TSHR ag	AID923	A647 fluor	Resorufin fluor	A488 autofl
CC(=O)NC(CCS(C)(=O)=O)C(=O)Nc1ccc2c(c1)OCO2 (centres undefined)	7%	0.4%	nt	nt	nt
O=c1ccc(Oc2nc(N3CCCCC3)nc(N3CCCCC3)n2)n[nH]1	1%	-1.8%	1e-09	i	i
O=C(O)CCC(=O)Nc1ccc(N2CCOCC2)cc1	3%[11.4 µM]	-0.3%	3.6e-08	i	i
COc1ccc(-c2nc3n(n2)C(=O)CC(c2ccco2)S3)cc1 (centres undefined)	nt	nt	3e-08	i	i
O=C1C2C3C=CC(C3)C2C(=O)N1c1n[nH]c(-c2cccnc2)n1 (centres undefined)	4%	-1.1%	1e-09	i	i
Cc1occc1-c1nnc(SCC(=O)c2c[nH]c3ccccc23)n1C	0%[11.4 µM]	0.1%	2.2e-08	i	i
CCn1c(COc2cccc3ccccc23)nnc1SCC(N)=O	0%	0.7%	4.1e-09	i	i
CC(=O)NC(Cc1c[nH]c2ccccc12)C(=O)OCC(=O)Nc1cc(C)on1 (centres undefined)	-2%	1.2%	1.8e-08	i	i
Clc1ccc(Cl)c(-c2ccc(/C=N/c3ncn[nH]3)o2)c1	nt	nt	1e-09	i	i
CC(C)CN(C(=O)COC(=O)Cn1cnc2ccccc2c1=O)C1CCS(=O)(=O)C1 (centres undefined)	?	0.4%	2.1e-08	i	i
CC1=C(C(N)=O)C(c2ccco2)C(C(N)=O)=C(C)N1	1%	5.8%	nt	nt	nt
N#Cc1nc(COc2ccc(Cl)cc2)oc1NCc1ccc2c(c1)OCO2	?	6.9%	3.4e-08	i	i
COC(=O)[C@H](Cc1ccccc1)NC(=O)C/C=C\[C@@H](C)[C@@H](CO)OC	-3%[11.4 µM]	-3.6%[11.5 µM]	nt	nt	nt
CCCC(=O)c1cc(F)c(N2CCOCC2)cc1C	1%	0.2%	3.1e-08	i	i
O=C(c1csnn1)N1CCC2(CC1)CN(c1ccccn1)C2	22%	-0.3%	2.8e-09	i	i
Cc1c(C(=O)NCc2cccnc2)oc2ccccc12	13%	0.4%	nt	nt	nt
Cn1c(=O)c2c(nc(CN3CCC(Cc4ccccc4)CC3)n2CCN2CCOCC2)n(C)c1=O	10%[11.4 µM]	-0.6%	7.8e-09	i	i
COc1cccc(C2N(c3cccc(Cl)c3)C(=O)C3CCCN32)c1 (centres undefined)	2%	2.9%	nt	nt	nt
CC(=O)N1CCN(c2ccc(NCc3cccs3)cc2)CC1	-4%	-1.4%	3.9e-08	i	i
O=C(O)CCCCCNS(=O)(=O)c1ccc(Cl)cc1	0%	-0.7%	nt	nt	nt
Cc1noc(C)c1COc1cccc(C(=O)OCCOc2ccc(F)cc2)c1	?	-0.6%	9.3e-09	i	i
CCn1c(C)nc2c(=O)oc3ccccc3c21	1%	0.0%	2.3e-08	i	i
CCN(CC)CCNC(=O)Cn1nc(-c2ccccc2)c2ccccc2c1=O	8%	2.1%	nt	nt	nt
CCc1nnc(NC(=O)c2cnccn2)s1	1%	-0.1%	7.4e-09	i	i
COc1cc2c(C(=O)NCCCN3CC(C)CC(C)C3)cn(CC(C)C)c(=O)c2cc1OC (centres undefined)	18%	-0.3%	3e-08	i	i

A different layout for some results above:
> COc1cc2c(C(=O)NCCCN3CC(C)CC(C)C3)cn(CC(C)C)c(=O)c2cc1OC (centres undefined)
  TSHR ag: 18%	AID923: -0.3%	A647 fluor: 3e-08	Resorufin fluor: i	A488 autofl: i
> Cc1c(C(=O)NCc2cccnc2)oc2ccccc12
  TSHR ag: 13%	AID923: 0.4%	A647 fluor: nt	Resorufin fluor: nt	A488 autofl: nt
> COC(=O)[C@H](Cc1ccccc1)NC(=O)C/C=C\[C@@H](C)[C@@H](CO)OC
  TSHR ag: -3%[11.4 µM]	AID923: -3.6%[11.5 µM]	A647 fluor: nt	Resorufin fluor: nt	A488 autofl: nt
> CC(=O)NC(CCS(C)(=O)=O)C(=O)Nc1ccc2c(c1)OCO2 (centres undefined)
  TSHR ag: 7%	AID923: 0.4%	A647 fluor: nt	Resorufin fluor: nt	A488 autofl: nt

The list goes on.
SMILES	TSHR ag	AID923	A647 fluor	Resorufin fluor	A488 autofl
[O-][n+]1onc2c1CCc1c-2nn(-c2ccccc2Cl)[n+]1[O-]	2%	1.4%	1e-09	i	i
CCOc1nc(S(=O)(=O)c2ccc(C)cc2)c(Cl)s1	12%	-0.2%	8.6e-09	i	i
CCOC(=O)Nc1sc2c(c1C#N)CCC(C)C2 (centres undefined)	10%	0.5%	5.1e-09	i	i
COc1cc(S(=O)(=O)NC2CCCCC2)ccc1Cl	1%	-1.5%	2.8e-08	i	i
CC(=O)N1CCCc2cc(S(=O)(=O)NC(C(=O)NCc3ccc(C)cc3)C(C)C)ccc21 (centres undefined)	2%	0.0%	1.2e-08	i	i
Cc1cccc(NC(=O)CCN2CCOCC2)c1	?	3.6%	nt	nt	nt
CC(=O)Nc1nc(CCC(C)C)cc2c1c(=O)oc1ccccc12	nt	-0.9%	8.1e-09	i	i
CCCOc1ccc(Br)cc1-c1cc(-c2ccc(Cl)cc2)[nH]c1-c1ccncc1	0%	-2.1%	nt	nt	nt
O=C(Nc1cccc2cccnc12)c1ccc(Br)o1	?	1.3%	1e-09	i	i
N#Cc1c(N)n[nH]c1-c1cc2c([nH]1)CCCC2	?	2.0%	2.4e-09	i	i
CCN(CC)CCCNC(=O)c1cc(-c2ccc(Cl)c(Cl)c2)on1	?	-0.4%	1e-09	i	i
O=C(CSc1ncc(-c2ccc(F)cc2)n1Cc1ccco1)Nc1nccs1	?	-2.3%	5e-09	i	i
Cc1cc(Cl)cc(C)c1OCCCCN1CCOCC1	14%	-1.1%	1.6e-08	i	i
CCN(CCCNC(=O)CNC(=O)Cn1cnc2ccccc2c1=O)c1cccc(C)c1	-2%[11.4 µM]	-1.2%	1e-09	i	i
CN(C(=O)CSc1nnc(NC2CCCCC2)s1)C1CCS(=O)(=O)C1 (centres undefined)	18%	-0.3%	4.6e-08	i	i
CCN(CC)c1ccc(NC(=O)CN2CCN(c3ccc(F)cc3)CC2)cc1	-14%	-1.5%	1.6e-09	i	i
CC(C)OC(=O)CSc1ncnc2c1cnn2-c1ccccc1	?	0.9%	2e-08	i	i
C[C@@H]1CC[C@H]2C(=O)NC[C@@H](O)CN2[C@@H]1c1ccc(Br)cc1	0%[11.4 µM]	6.4%[11.5 µM]	nt	nt	nt
O=C(C1CCCN(S(=O)(=O)c2cccc3nsnc23)C1)N1CC=C(c2ccccc2)CC1 (centres undefined)	3%	0.1%	3.6e-08	i	i
Cc1cccc(N2C(=O)CC(N3CCN(Cc4ccc(Cl)cc4)CC3)C2=O)c1 (centres undefined)	nt	nt	1.7e-09	i	i
O=P(c1ccc2c(c1)OCCO2)(N1CCOCC1)N1CCOCC1	-3%[11.4 µM]	-1.1%	1e-09	i	i
CCCCCOC(=O)C1=C(C)NC(=O)NC1c1ccccc1OCC (centres undefined)	28%	-0.3%	nt	nt	nt
CCOC(=O)C1CCN(C(=O)CSc2ccccc2)CC1	6%	-2.1%	1e-09	i	i
CC(C)NC(=O)NC(=O)COC(=O)Cc1ccsc1	-1%	-1.9%	3.7e-08	i	i
COc1ccccc1-n1c(SCC(=O)NC(C)(C)C)nc(O)cc1=O	-1%	-1.1%	9.9e-09	i	i
O=C(CN(Cc1ccco1)C(=O)CNS(=O)(=O)c1ccccc1)NCc1ccccc1	20µM*	1.3%	1e-09	i	i
C=CCn1c(SCC2=C(C(=O)OCC)C(C)NC(=O)N2)nnc1C1CCCCC1 (centres undefined)	14%	-4.0%	2.2e-08	i	i
